Screening data deposited in PubChem BioAssay by ICCB-Longwood Screening Facility, Harvard Medical School.
RN4220 kill: kills Staphylococcus aureus RN4220 | S. aureus RN4220 growth, OD600, 16 h | inhibition, % (no concentration beside the values) | 330,000 compounds, 0.33% hits | AID 1259311;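 active means z-score of -3 or lower and OD600 up to 0.18 on both plates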;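 further: plate controls were untreated cells for no effect and reference antibiotic for full effect; stock transfer was 100 nL into about 80 µL; one replicate is shown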
ugtP null kill: compounds lethal to S. aureus RN4220 ugtP deletion mutant | OD600 growth, 16 h; some inactives read as strong as hits | 330,000 compounds, 0.54% hits | growth inhibition, % (concentration not given with the values);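 active means z-score under -3 and OD600 up to 0.15 on both plates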;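 further: plate controls were untreated wells for no effect and antibiotic for full effect; wells of about 80 µL received 100 nL stock; the first replicate is given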
Active calls of the source: *. These rows are one share of the data; count on the stated rates, not on these rows.

Value order – RN4220 kill	ugtP null kill
- O=C(CNC(=O)c1ccc(Br)cc1)NN=Cc1ccc[nH]1
 : 4.5	3.1
- O=c1c(=Cc2ccco2)sc2n1CN(c1ccccc1)CN=2
 : -1.4	7.8
- COc1ccc(C=Nn2cncn2)cc1COc1ccc(NC(C)=O)cc1
 : 2.3	13.2
- Nc1nonc1-n1nnc(C(=O)NN=Cc2cc(Cl)ccc2O)c1CN1CCCCCC1
 : -0.6	-0.6
- N#CCCn1cc(C=NO)c(-c2ccc(F)cc2)n1
 : -3.7	-4.6
- COC(=O)c1ccc(C=NOCC(=O)NC2CCCCCCC2)cc1
 : -0.6	8.6
- O=C(NN=C/C=C/c1ccc2c(c1)OCO2)C1COc2cc3ccccc3cc2O1 (configuration not stated)
 : -3.6	-7.8
- CC(C=NNC(=O)c1nnn(-c2nonc2N)c1CN1CCCCC1)c1ccccc1 (configuration not stated)
 : -0.7	4.0
- CCn1nc(C)c(C=NNC(=O)c2ccc3c(c2)OCO3)c1C
 : 3.1	7.5
- CCN(C=Nc1sc2c(c1C#N)CCCCC2)CC
 : 7.8	8.3
- CC1CCCC(C)N1C(=O)c1cccc2c1-c1ccccc1C2=NO (configuration not stated)
 : 0.2	3.1
- COc1cccc(C=NNC(=O)c2ccccc2N(Cc2ccccc2)S(=O)(=O)c2ccccc2)c1OC
 : -5.3	-13.5
- COc1cc(C=NNC(=O)Cn2nnc3ccccc32)cc(OC)c1OC
 : 1.2	1.9
- CC1(C)N=C(C=NO)CN1O
 : 4.0	0.0
- COc1ccc(-c2cc(C(=O)NN=Cc3ccc(OC)c(COCC(F)(F)C(F)F)c3)c3ccccc3n2)c(OC)c1
 : -0.6	-7.9
- Cc1nnc(C)n1N=Cc1cc(Br)cc(Br)c1O
 : -11.6	20.0
- COc1ccc(C=NNC(=O)c2cc(C34CC5CC(CC(C5)C3)C4)[nH]n2)cc1O
 : -4.7	-43.3
- Cc1c(C=NNC(=O)c2ccc3c(c2)OCO3)cnn1C
 : 9.0	-1.7
- Cc1ccc2c(c1)C(=NO)CCS2
 : 8.1	3.3
- CON=C(Cn1ncc(N2CCCC2)c(Cl)c1=O)c1ccc(Cl)cc1
 : -1.2	-2.8
- CCOC(=O)C=c1sc(=Cc2ccccc2OC)c(=O)n1CC(=O)N1CCOCC1
 : -5.5	6.4
- CCCc1cc(C(=O)NN=Cc2ccc(CC)s2)c2ccccc2n1
 : 6.0	1.0
- CC1CC(=N/N=C2/NC(=O)CS2)CC(C)(C)C1 (configuration not stated)
 : 1.4	2.8
- Oc1ccc(Br)cc1C=NN1CCN(Cc2ccccc2)CC1
 : 1.5	24.2
- Cc1ccc2nc(Nc3ccccc3)c(C=NO)c(=O)n2c1
 : 4.3	-14.1
- Cc1cccc(C)c1OCC(=O)NN=Cc1ccc2c(c1)OCO2
 : 0.7	-9.4
- Cc1ccc(S(=O)(=O)Oc2ccc(C)cc2C=N/N=C2\NC(=O)C(C)S2)cc1 (configuration not stated)
 : 19.2	4.7
- COc1ccc(-c2[nH]ncc2C=NNS(=O)(=O)c2ccc(Cl)cc2)cc1
 : -1.6	5.0
- Cl/C(C=NN1CCN(c2ccccn2)CC1)=C\c1ccccc1
 : -2.1	7.7
- CC(=NNC(=O)Cc1cccn1C)c1ccc2ccccc2c1
 : -3.8	4.3
- COc1ccc(C=NNC(=S)SCN2C(=O)C3CCC(C)(C2=O)C3(C)C)cc1 (configuration not stated)
 : 3.3	5.0
- COc1ccc(O)c(C=NNC(=O)CSc2nnc(C)n2-c2ccccc2)c1
 : 0.1	5.4
- Cc1scc(C(=O)NN=Cc2ccc(OCC(C)C)cc2)c1C
 : -2.4	-0.1
- CCCCC(=O)NN=C(C)CC(=O)Nc1cc(Cl)ccc1OC
 : -3.1	7.0
- FC(F)(F)c1nc2ccccc2nc1NN=Cc1ccc(Cl)cc1
 : 2.0	-12.2
- CCCC(=NNC(=O)c1nnn(-c2nonc2N)c1CN1CCCCC1)c1ccccc1
 : 10.6	-3.6
- Cc1ccc(C(=O)NN=Cc2ccc[nH]2)cn1
 : 2.2	6.4
- Cc1ccc(-n2ncc(C#N)c2N=CN2CCCCCC2)cc1
 : 2.2	-0.8
- Fc1ccc(CON=CC2=C(Cl)c3ccccc3CC2)cc1
 : 10.3	99.0*
- Cc1cc2c(nn1)CCCC2=NO
 : -8.2	9.0
- COc1ccc(C=NNC(=O)c2nc(Cl)c(Cl)c(N)c2Cl)cc1COc1ccc(F)cc1F
 : -5.4	-6.7
- Cc1ccc(C=NN2C(=S)SC(C)(C)C2N(O)C(=O)Nc2ccc([N+](=O)[O-])cc2)cc1 (configuration not stated)
 : -5.2	-12.0
- COC(=O)c1cccc2c1-c1ccccc1C2=NO
 : -0.8	20.6
- Cc1ccc(S(=O)(=O)NN=C2CC(c3ccccc3)Oc3ccccc32)cc1 (configuration not stated)
 : -1.6	27.0
- C=CCc1ccc(OCCOc2ccc(C=Nn3cnnc3)cc2OCC)c(OC)c1
 : 2.8	3.3
- C#CCN1CC(C)C(=NO)CC1C (configuration not stated)
 : -1.4	-1.2
- CC(CC(=O)Nc1ccc(N(C)C)cc1)=NNC(=O)c1ccccn1
 : -3.4	-4.2
- O=C(OCc1ccccc1)c1ccccc1O
 : 5.9	-5.6
- CCCOc1cccc(C=NNC(=O)c2csc(C)c2C)c1
 : 4.5	6.0
- COc1cccc(OCCn2c(C)c(C=Nn3cnnc3)c3ccccc32)c1
 : -3.3	-6.5
- COc1ccc(CN2C(=O)c3ccccc3C(C=NOCc3ccc(C)cc3)C2=O)cc1 (configuration not stated)
 : 14.5	-6.2
- COc1ccccc1CNC(=O)CC(C)=NNC(=O)Cc1ccc(OC)c(OC)c1
 : 7.1	6.2
- COc1ccc(C2CC2C(C)=NOC(=O)c2cccs2)cc1 (configuration not stated)
 : 8.1	-4.2
- Cc1c(C=NN=C2CCC3C4CCc5cc(O)ccc5C4CCC23C)cnn1C (configuration not stated)
 : -5.1	0.0
- C=CCc1c(C)nc(C)nc1NN=Cc1ccc([N+](=O)[O-])cc1
 : -4.7	-5.1
- Cn1cccc1C=NNC(=O)Cn1cnc2ccccc21
 : 5.6	-4.3
- CN1C(=O)C(=NOC(=O)c2ccccc2)c2ccccc21
 : -2.2	6.9
- O=c1c(=Cc2ccco2)sc2nc(-c3ccccc3Br)nn12
 : 3.1	-2.4
- CC(C)(C=NO)/[N+]([O-])=C/C=[N+](\[O-])C(C)(C)C=NO
 : 2.9	-2.6
- CC(CC(=O)Nc1ccccc1C(F)(F)F)=NNC(=O)c1cnccn1
 : 1.9	-4.5

(continued)
Value order – RN4220 kill	ugtP null kill
- Cc1cc(-c2n[nH]c(=S)n2N=Cc2sccc2C)n[nH]1
 : 3.6	-6.2
- COc1ccc(C=NNC(=O)COc2ccccc2-c2ccccc2)cc1
 : -4.1	-7.9
- O=C(NN=Cc1c[nH]c2ccccc12)c1ccn(Cc2ccc(Cl)cc2Cl)n1
 : 0.3	-1.4
- CCOC(=O)NC(=O)C(C#N)=NNc1c(F)cccc1F
 : 1.3	-2.8
- COc1cccc(C=NNC(=O)c2[nH]c(C)c(C(=O)NN=Cc3cccc(OC)c3O)c2C)c1O
 : 4.6	-9.7
- CCc1n[nH]c2c1C(=NO)CC(c1ccccc1)C2 (configuration not stated)
 : -0.6	5.0
- N#CC(=C1CCCN1)c1ccc2ccccc2n1
 : 10.7	-5.3
- FCCCOc1ccc(C=NOCc2ccc(Cl)cc2)cc1
 : -2.7	85.4*
- ON=C(c1ccc2c(c1)OCCO2)C1CCCCC1
 : -0.7	-5.5
- CC(=NNC(=O)C1CC1)c1ccc(Cl)c(Cl)c1
 : 2.2	-3.0
- COC(=O)c1ccc(C=NN2CCN(Cc3ccccc3)CC2)cc1
 : 1.1	1.0
- CCc1cc(C(Cc2cscn2)=NO)c(O)cc1O
 : -0.1	-2.5
- Cc1c(Cl)c([N+](=O)[O-])nn1Cc1ccc(C(=O)NN=Cc2cc(Cl)ccc2O)o1
 : -4.0	-16.7
- CCCCOc1ccc(C=NNC(=O)c2nnn(-c3nonc3N)c2CN2CCCCCC2)cc1
 : 6.0	10.5
- CC(=NOC(=O)c1ccccc1)c1cc(-c2ccc(Cl)cc2)no1
 : 0.2	4.8
- CCCn1c(N=Cc2cc(OC)ccc2O)nc2ccccc21
 : 4.3	4.2
- O=c1c(C=NO)coc2ccc3ccccc3c12
 : 2.7	8.8
- O=C(NN=CCCc1ccccc1)c1ccccc1
 : 1.9	4.5
- COc1ccc(C=NNC(=O)COc2ccccc2Cl)cc1Cn1nc(C)cc1C
 : 2.7	-2.6
- CCOc1ccc(Br)cc1C(C)=NNC1=NCCN1
 : 1.9	3.0
- Cn1c(Cl)c(C=NOC(=O)c2ccc(Cl)cc2)c2ccccc21
 : -2.9	22.6
- FC(F)(F)c1cc(C(F)(F)F)c2ccc(NN=Cc3ccccc3)nc2n1
 : 0.6	-11.3
- C=CCSC1=NC(=Cc2cc(OC)c3c(c2)OCO3)C(=O)S1
 : 5.1	4.4
- O=C(NN=Cc1cccs1)c1cc(-c2ccc3ccccc3c2)n[nH]1
 : 3.9	-22.7
- O=[N+]([O-])c1cc(C=NN2CCN(C3c4ccccc4-c4ccccc43)CC2)ccc1Cl
 : -4.5	-2.6
- CC(=NNc1ccc(Cl)cc1)C(=NO)C(=O)Nc1ccccc1
 : 1.3	-13.5
- Brc1ccc(C=NN2CCN(C3c4ccccc4-c4ccccc43)CC2)s1
 : -6.7	-5.9
- CCCCOP(=O)(OCCCC)C(C#N)=C(C)O
 : 5.2	3.7
- COc1ccccc1C(=O)ON=C1CCCc2c1ccc(OC)c2[N+](=O)[O-]
 : -1.4	-5.7
- O=[N+]([O-])c1ccc(C=NNc2cc(Cl)nc(-c3ccccc3)n2)cc1
 : 1.2	4.2

The list goes on.
canonical_smiles	RN4220 kill	ugtP null kill
NC(CCN1CCCCC1)=NO	6.7	11.2
Cc1cc(C)nc(SCc2ccc(C(=O)NN=Cc3cccc(O)c3O)cc2)n1	9.4	-6.5
Cc1ccc(C=Nc2sc3c(c2C#N)CCC3)o1	1.2	-0.1
Cc1cc(SCC(=O)NN=Cc2ccc(O)c(O)c2)c(C)cc1Br	-0.3	7.2
C=CCSC(=Nn1cnc2ccccc2c1=O)N1CCCCC1	0.9	7.0
O=C(NN=Cc1ccc2c(c1)OCO2)C(O)c1ccccc1 (configuration not stated)	5.3	-0.4
CN=c1scc(C)n1N=Cc1ccc(O)cc1O	3.1	-7.5
Cc1ccc(C=NN2CCN(c3ccc(Cl)cc3)CC2)o1	13.1	2.2
O=C(NN=Cc1cccc(O)c1)c1ccc(COc2ccc3c(c2)CCC3)o1	-2.0	5.6
CCOC(=O)C=c1sc(=Cc2ccc3c(c2)OCCO3)c(=O)n1CC(=O)NCC1CCCO1 (configuration not stated)	1.2	2.3
COC(=O)c1ccc(-n2c(C)cc(C=Nn3cnnc3)c2C)cc1	7.0	9.6
O=C(NN=Cc1ccc(Cl)c([N+](=O)[O-])c1)c1ccc2nc[nH]c2c1	-2.1	1.7
COc1ccc(CC(=O)Nc2ccc(C(C)=NNC(=O)c3cccc([N+](=O)[O-])c3)cc2)cc1	1.6	1.5
CCCCCCC(=NO)c1ccccn1	17.0	7.9
O=C(NN=Cc1ccc(F)cc1)c1cc(-c2ccco2)nc2ccccc12	0.7	-2.7
CC(=O)O[C@@H]1C=C[C@](C)(O)C[C@@H](C)CC=C[C@H]2[C@H](O)C(C)=C(C)[C@H]3[C@H](Cc4ccccc4)NC(=O)[C@@]123	2.3	2.2
CSc1cc(C=NO)c(SC)s1	10.4	-4.1
COc1ccc(C=Nn2c(-c3cccs3)n[nH]c2=S)cc1	12.7	-19.3
CC(=NNC(=O)c1c(Cl)c(C)nn1C)c1cccc(NC(=O)COc2ccc(Cl)cc2)c1	0.0	-0.4
Cc1ccc(-c2n[nH]c(=S)n2N=C/C=C\c2ccccc2[N+](=O)[O-])cc1	-1.6	6.5
Clc1ccc(Cn2cc(C=Nn3cnnc3)c3ccccc32)c(Cl)c1	-7.6	-10.4
Nc1ccc(Cl)cc1C(=NO)c1ccccc1	-0.6	-4.9
CC(=O)Oc1ccc(C=NNC(=O)C2CCCN2S(=O)(=O)c2ccc(Cl)cc2)cc1 (configuration not stated)	-0.9	0.1
C=CCc1cc(C=NNC(=O)CSc2nnc(CCCc3ccc(OC)cc3)o2)cc(OC)c1O	-1.1	-2.6
Cc1ccc(S(=O)(=O)NN=CC(C)(C)CO)cc1	-1.2	5.6
Cc1ccc(C=NNc2ccc3c(C(F)(F)F)cc(C(F)(F)F)nc3n2)cc1	0.3	-10.4
Cc1ccc2nc(NN=Cc3ccc([N+](=O)[O-])o3)nc(-c3ccccc3)c2c1	99.3*	100.1*
Cc1nnc(C)n1N=C/C=C/c1ccccc1	-4.5	-4.3
O=C(NN=Cc1ccccn1)c1ccc(Br)o1	11.0	-3.1
CCCc1nc2ccccc2c(=O)n1N=Cc1ccc(O)cc1	3.1	-0.3

Some of the entries so far, field by field:
Cc1ccc(-c2n[nH]c(=S)n2N=C/C=C\c2ccccc2[N+](=O)[O-])cc1
  RN4220 kill = -1.6; ugtP null kill = 6.5
Clc1ccc(Cn2cc(C=Nn3cnnc3)c3ccccc32)c(Cl)c1
  RN4220 kill = -7.6; ugtP null kill = -10.4
Nc1ccc(Cl)cc1C(=NO)c1ccccc1
  RN4220 kill = -0.6; ugtP null kill = -4.9
CC(=O)Oc1ccc(C=NNC(=O)C2CCCN2S(=O)(=O)c2ccc(Cl)cc2)cc1 (configuration not stated)
  RN4220 kill = -0.9; ugtP null kill = 0.1

Going on with the list.
canonical_smiles	RN4220 kill	ugtP null kill
C(=Nn1cnnc1)c1ccc(OCc2cccc3ccccc23)cc1	1.0	19.5
O=[N+]([O-])c1ccc(C2CCCCC2=NOCc2ccccc2F)c([N+](=O)[O-])c1 (configuration not stated)	2.2	-3.6
CC(CC=NNC(=O)COc1cc(Cl)ccc1Cl)c1ccccc1 (configuration not stated)	-9.4	1.1
Cc1ccc(-c2n[nH]c(=S)n2N=Cc2cccn2C)cc1	1.9	-4.9
